ALR inh: inhibitors of human sulfhydryl oxidase ALR. P55789. purified ALR, DTT oxidation, H2O2 HRP-luminol luminescence. inhibition, % (concentration not given with the values). 3.8% of 290,000 active. AID 485317;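 active = mean and each replicate at 75% or more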;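 also: stock transfer was 7.5 nL into about 7.5 µL; 0% = neutral wells and 100% = wells with inactivated enzyme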
Target sequence (P55789 whole entry, looked up): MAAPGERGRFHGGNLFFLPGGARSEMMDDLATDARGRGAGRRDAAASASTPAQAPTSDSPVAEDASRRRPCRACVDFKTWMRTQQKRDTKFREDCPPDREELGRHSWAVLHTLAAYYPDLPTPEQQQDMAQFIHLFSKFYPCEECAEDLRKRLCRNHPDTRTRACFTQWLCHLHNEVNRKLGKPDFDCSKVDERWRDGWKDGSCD
Ecoli rRNA inh: selective bacterial rRNA inhibition in E. coli; 1.6% of 350,000 active; E. coli WT GFP vs humanized-ribosome RFP mutants, fluorescence, 24 h; stronger effect = lower value; DMSO median 0, no signal -100; AID 720706; GFP signal change (wild-type ribosome), % (concentration not given with the values);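 active = significant combined selectivity score with lowered wild-type GFP, culture density cut under 30%, mutant RFP and density less affected; inactive = any of these conditions unmet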; also: one replicate is shown; some compounds called inactive have numbers as strong as hits
Vif TR-FRET: inhibitors of Vif binding to APOBEC3G peptide, primary screen, biochemical, TR-FRET, GST-Vif 1-94, biotin-A3G peptide, dose response retest (AID 1117319). TR-FRET GST-Vif / biotin-A3G peptide binding; higher % means a stronger effect; test concentration not given here; strong numbers were not always called active. inhibition, %, or IC50 in µM where a hit was titrated. 0.57% of 260,000 active;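 active = above the screen mean plus three standard deviations and confirmed in dose response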;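 also: Vif residues 1-94 fused to GST binding biotinylated APOBEC3G peptide 110-148; 0% = full assay without inhibitor and 100% = GST in place of GST-Vif; retest series ran down from 100 µM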
AF4-AF9 inh: inhibitors of human MLL-AF4/AF9 interaction | P42568 | inhibition, % at 10 µM | AID 651704 | 0.47% of 350,000 active | AlphaScreen, biotin-AF4 peptide binding to FLAG-AF9;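 active = every replicate reaching a set inhibition limit, whatever the replicate mean, cut at about 25% in these data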;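 also: 0% = plate neutral control median and 100% = total signal loss; the record names both 10 and 1 µM as test concentration; the first replicate is given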
HNF4A DNA FP: change in binding of human HNF4 alpha to DNA. HNF4a-FITC DNA binding, fluorescence polarization, 1 h. activity change, % at 10 µM. 0.3% of 360,000 active. AID 1224865; in the data active = activity change above about 30%, passing the limit was not always enough;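 also: controls were the assay level and a saturating level of protein; the project sought stronger binding though the title names inhibitors; some compounds called inactive have numbers as strong as hits; positive values seem to mean higher polarization but the record does not say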
Target sequence (P41235 whole entry, looked up): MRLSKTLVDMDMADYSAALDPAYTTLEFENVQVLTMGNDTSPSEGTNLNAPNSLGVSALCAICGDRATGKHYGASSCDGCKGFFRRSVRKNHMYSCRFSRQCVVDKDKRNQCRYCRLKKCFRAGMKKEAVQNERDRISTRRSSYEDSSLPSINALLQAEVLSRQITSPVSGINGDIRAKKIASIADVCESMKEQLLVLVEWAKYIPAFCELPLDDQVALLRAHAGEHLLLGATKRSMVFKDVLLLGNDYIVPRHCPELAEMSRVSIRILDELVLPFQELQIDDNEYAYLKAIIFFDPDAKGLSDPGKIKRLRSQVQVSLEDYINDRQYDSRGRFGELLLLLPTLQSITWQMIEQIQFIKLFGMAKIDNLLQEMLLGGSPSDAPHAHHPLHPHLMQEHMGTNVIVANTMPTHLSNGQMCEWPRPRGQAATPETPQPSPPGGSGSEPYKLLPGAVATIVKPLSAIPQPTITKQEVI
Ecoli growth: blocks Escherichia coli growth; OD600, 23 h; stronger effect = lower value; OD600 absorbance (test concentration not listed); 0.21% of 330,000 active;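 active = OD600 absorbance below the run mean of sample wells minus 3.6 SD, in any replicate, cut at about 0.56 in these data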;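 also: stock transfer was 300 nL into about 60 µL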
FGF22 binding: shifts melting point of recombinant human FGF22. calls only at 9.99 µM. 1.5% of 340,000 active. recombinant FGF22 thermal shift, SYPRO orange fluorescence; percent of sucrose octasulfate shift, DMSO zero. Q9HCT0. AID 651658;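 active = melting point raised past a set limit in the mean and every replicate; three in four hits are not shown here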
Target sequence (Q9HCT0 whole entry, looked up): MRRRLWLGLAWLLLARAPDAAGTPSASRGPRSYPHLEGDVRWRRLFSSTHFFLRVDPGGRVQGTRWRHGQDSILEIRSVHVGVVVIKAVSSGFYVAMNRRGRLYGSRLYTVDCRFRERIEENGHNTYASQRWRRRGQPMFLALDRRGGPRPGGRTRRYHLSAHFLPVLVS
Ecoli rRNA inh OD600: further read-out of Ecoli rRNA inh, marked with its call; OD600 change, %; measured here: OD600 growth;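 optical density of the mix in the first replicate; 0 = DMSO median and -100 = no signal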
Ecoli rRNA inh RFP: recorded beside Ecoli rRNA inh, whose call it bears; RFP signal change, %; measured here: RFP humanized mutant strains;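 first replicate; 0 = DMSO median and -100 = no signal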
The depositor's hits bear a star; i = inactive; nt = no result given; & = joins results of further samples. An excerpt (hit frequency here may not be typical).

The first 6 records, to show the layout:
HNF4A DNA FP	FGF22 binding	Ecoli rRNA inh OD600	Ecoli rRNA inh RFP	Vif TR-FRET	Ecoli growth	ALR inh	Ecoli rRNA inh	AF4-AF9 inh	molecule
-1.2	i	-6	0.1	6%	0.68	-3	10	-6.3	CN(CCC#N)C(=O)COC(=O)c1ccc(Cl)cc1O
-2.7	i	4	5.1	-5%	nt	nt	-3	-2.7	COC(=O)[C@H]1C[C@@]2(O)CN(S(=O)(=O)c3ccc(C)cc3)C[C@@]2(OC(=O)NCc2ccccc2)C[C@H]1C(=O)OC
4.7	i	3	0.5	-1%	0.73	-6	18	-3.5	Cc1cccc(N=C2CSC(=O)N2)c1
2.0	nt	nt	nt	21%	0.69	-17	nt	nt	Clc1ccc(CSc2nnc([C@@H]3CCCN3)o2)cc1Cl
nt	nt	nt	nt	-4%	0.62	0	nt	nt	CCc1nnc(NC(=O)c2csc3c2CCC(C)C3)s1 (stereo not drawn)
6.1	nt	nt	nt	10%	0.67	74	nt	nt	CC(C)(C)n1nnnc1C(c1cccnc1)N1CCN(c2ccccc2)CC1 (stereo not drawn)

The list itself, previewed entries included:
HNF4A DNA FP	FGF22 binding	Ecoli rRNA inh OD600	Ecoli rRNA inh RFP	Vif TR-FRET	Ecoli growth	ALR inh	Ecoli rRNA inh	AF4-AF9 inh	molecule
-1.2	i	-6	0.1	6%	0.68	-3	10	-6.3	CN(CCC#N)C(=O)COC(=O)c1ccc(Cl)cc1O
-2.7	i	4	5.1	-5%	nt	nt	-3	-2.7	COC(=O)[C@H]1C[C@@]2(O)CN(S(=O)(=O)c3ccc(C)cc3)C[C@@]2(OC(=O)NCc2ccccc2)C[C@H]1C(=O)OC
4.7	i	3	0.5	-1%	0.73	-6	18	-3.5	Cc1cccc(N=C2CSC(=O)N2)c1
2.0	nt	nt	nt	21%	0.69	-17	nt	nt	Clc1ccc(CSc2nnc([C@@H]3CCCN3)o2)cc1Cl
nt	nt	nt	nt	-4%	0.62	0	nt	nt	CCc1nnc(NC(=O)c2csc3c2CCC(C)C3)s1 (stereo not drawn)
6.1	nt	nt	nt	10%	0.67	74	nt	nt	CC(C)(C)n1nnnc1C(c1cccnc1)N1CCN(c2ccccc2)CC1 (stereo not drawn)
0.5	i	-17	1.1	nt	0.67	16	-10	9.8	Cc1cc(N2CCOCC2)nc2ccc(NC(=S)N3CCCCC3C)cc12 (stereo not drawn)
2.0	i	-3	-4.4	nt	0.65	-1	-2	-0.1	O=C(COC(=O)c1ccco1)c1ccccc1
2.5	i	10	-3.6	-9%	0.69	-12	3	-1.3	CC(=O)Nc1ccc(S(=O)(=O)N(C)CC(=O)N2CCN(C(=O)c3ccco3)CC2)cc1
9.1	i	4	-1.4	10%	0.68	24	6	2.1	Cn1c(=O)c2c(ncn2CC(=O)OCC(=O)Nc2sccc2C(N)=O)n(C)c1=O
4.0	nt	-28	-4.2	9%	0.64	14	-20	-2.0	CCOC(=O)c1sc(-c2ccc(Cl)cc2)nc1O
nt	i	10	1.4	nt	nt	nt	2	14	C[C@H]1CN([C@@H](C)CO)C(=O)Cc2cc(NC(=O)CCCCCC(=O)Nc3ccccc3N)ccc2O[C@@H]1CN(C)S(C)(=O)=O
0.8	i	-7	-2.1	0%	0.71	-14	7	-4.5	O=C(CSc1ccc(F)cc1)Nc1ccccc1Br
0.2	i	-10	8.2	-6%	0.75	3	1	-0.2	CCOC(=O)c1c(NC(=O)CSc2nc3ccccc3o2)sc(C)c1C
nt	i	2	-1.2	nt	nt	nt	2	-0.4	CCNC(=O)[C@@H]1[C@@H](CO)[C@@H]2Cn3c(ccc(-c4ccccc4)c3=O)[C@@H]2N1Cc1cccnc1
-0.8	i	11	1.5	1%	0.61	24	13	-5.1	O=C(O)c1ccc(N2CC3CC(C2)c2cccc(=O)n2C3)c(NC(=S)Nc2ccc(Cl)cc2Cl)c1 (stereo not drawn)
-3.3	i	23	2.9	5%	0.68	-10	7	-1.8	Cc1onc(-c2ccccc2Cl)c1C(=O)NNC(=O)c1nn(C)cc1Cl
2.6&2.3	i	-23&-28	-3.5&-3.2	10%&-9%	0.65&0.66	-2&-12	-20&-27	-3.1&4.2	C[C@]12CCC(=O)C[C@@H]1CC[C@@H]1[C@@H]2CC[C@]2(C)[C@@H](C(=O)COC(=O)CCC(=O)O)CC[C@@H]12
-0.5	nt	nt	nt	-14%	0.74	-3	nt	nt	COc1cccc2cc(C(=O)C3=C(O)C(=O)N(CCN(C)C)C3c3ccc(F)cc3)oc12 (stereo not drawn)
-0.3	i	21	-0.8	-9%	nt	54	24	-2.3	CCc1n[nH]c(=S)n1/N=C/c1ccccn1
0.4	nt	nt	nt	3%&-2%	0.69	-1	nt	nt	Cc1cc(Cl)c(S(=O)(=O)N2CCN(c3ccc(F)cc3)CC2)cc1OCC(=O)NC1CCCCC1
-0.5	i	-9	-5.1	25%	0.68	-12	-7	7.5	Cn1cc(S(=O)(=O)CC(=O)Nc2ccc3c(c2)OCO3)c2ccccc21
1.9	i	-2	-0.8	nt	0.72	1	-4	2.9	O=C(CCc1cccc(Cl)c1)NC1CCCN(Cc2ccccc2F)C1 (stereo not drawn)
nt	i	10	1.4	nt	nt	nt	2	-1.7	C[C@@H]1CN([C@H](C)CO)C(=O)c2cccc(NS(=O)(=O)c3cn(C)cn3)c2O[C@@H]1CN(C)Cc1ccccc1
nt	i	-14	2.5	nt	nt	nt	-4	7.9	COc1ccc(CN(C)C[C@H]2OCCCC[C@@H](C)Oc3ccc(NC(=O)Nc4ccc(C(F)(F)F)cc4)cc3C(=O)N([C@H](C)CO)C[C@@H]2C)cc1
0.8	i	8	0.3	12%	0.67	-4	3	8.8	CC(C)N1CCC(=NNc2ccc([N+](=O)[O-])cc2S(=O)(=O)N2CCOCC2)CC1
1.7	nt	nt	nt	25%	0.79	-16	nt	nt	COC(=O)CCCc1nc2ccccc2s1
nt	i	-5&-2	3.9&2.9	nt	nt	nt	-2&-2	2.1	CO[C@H]1CN(C)C(=O)c2ccc(NC(=O)Nc3cccc(F)c3)cc2OC[C@H](C)NC[C@H]1C
nt	i	2	-1.0	nt	nt	nt	-2	-4.0	C[C@@H]1CN([C@@H](C)CO)C(=O)c2cc(NS(C)(=O)=O)ccc2O[C@H]1CN(C)C(=O)Nc1ccc(C(F)(F)F)cc1
-0.3	nt	nt	nt	19%	0.7	-33	nt	nt	CCOc1ccc(OCC)c(NC(=O)CN2CCC(NC(=O)c3cccc(F)c3)CC2)c1
2.8	nt	nt	nt	4%	0.64	39	nt	nt	Cc1cc2c(cc(C(=O)NCCCN3CCOCC3)n2Cc2ccc(Cl)cc2)o1
-5.0	i	20	0.3	12%	0.69	-8	21	-1.3	CC(NC(=O)c1ccc(F)cc1)C(=O)NC1=NCCS1 (stereo not drawn)
-2.1	nt	nt	nt	8%	0.71	nt	nt	nt	Cc1cc(C)c(C)c(S(=O)(=O)N2CCC(C(=O)Nc3ccccc3N3CCOCC3)CC2)c1C
0.0	i	-3	3.0	nt	0.71	86*	3	1.0	Cc1ccccc1N1CCN(C2CCCN(C(=O)c3cnsn3)C2)CC1 (stereo not drawn)
-6.5	i	-9	-1.9	-4%	nt	nt	-9	-1.3	CCN(CC)C(=O)C1=C(C)N(CCC2=CCCCC2)C(=O)C(CC(=O)NCC2CCCCC2)C1 (stereo not drawn)
0.0	i	41	2.8	nt	nt	nt	15	-2.0	CCCNC(=O)c1cc(C2CCCCN2C(=O)OCCF)on1 (stereo not drawn)
nt	i	-4	0.7	nt	nt	nt	-1	0.4	N#C[C@@H]1N[C@@H](CO)[C@@H]1c1ccc(C2=CCCCC2)cc1
2.6	i	-4	1.6	nt	0.62	nt	-2	-0.9	COc1cccc(NC(=O)CCC(=O)Nc2cc(OC)c(NC(=O)c3cccs3)cc2OC)c1
-12	nt	-33	5.5	9%	0.64	-11	-15	nt	Cc1cc(C(=O)NNC(=S)NC(=O)/C=C/c2ccccc2Cl)n[nH]1
-4.6	i	5	-1.4	-1%	0.6	-11	4	6.0	CN(C)C(CNc1ccc(S(C)(=O)=O)cc1[N+](=O)[O-])Cc1ccccc1 (stereo not drawn)
1.2	nt	nt	nt	5%	0.75	-5	nt	nt	CC(C)(CSc1nncn1N)NS(=O)(=O)c1ccc(Cl)cc1
3.2	i	8	-2.3	nt	0.67	20	9	2.4	CC(=O)Nc1ccc(NC(=O)C2C3C=CC(C3)C2C(=O)O)cc1 (stereo not drawn)
nt	i	3	1.4	nt	nt	nt	2	-2.9	C[C@@H]1CN([C@@H](C)CO)C(=O)c2cc(/C=C/c3ccccc3)cnc2O[C@@H]1CN(C)Cc1cccc(C(=O)O)c1
nt	i	0&-8	10&8.5	nt	nt	nt	-2&-6	3.4	CO[C@@H]1CN(C)C(=O)c2cc(NC(=O)Nc3cccc(Cl)c3)ccc2OC[C@H](C)NC[C@H]1C
2.8	i	-3	-14	-13%	0.67	-15	9	-0.1	CC(C)(Oc1ccc(Cl)cc1)C(=O)N1CCC(C(N)=O)CC1
-3.9	i	1	-0.7	nt	0.73	nt	1	2.8	O=C(OCc1cccc(C(F)(F)F)c1)c1ccc[nH]c1=O
1.2	nt	nt	nt	nt	0.63	-3	nt	nt	CCCc1cc(-c2nc(-c3ccc(Br)cc3)cs2)ccn1
-1.6	i	6	4.7	-5%	0.7	nt	-12	0.0	COc1cccc(C=NNC(=O)c2ccncc2)c1O

Whole records from above. Order of values: HNF4A DNA FP | FGF22 binding | Ecoli rRNA inh OD600 | Ecoli rRNA inh RFP | Vif TR-FRET | Ecoli growth | ALR inh | Ecoli rRNA inh | AF4-AF9 inh
`O=C(OCc1cccc(C(F)(F)F)c1)c1ccc[nH]c1=O` reads -3.9 | i | 1 | -0.7 | nt | 0.73 | nt | 1 | 2.8
`CO[C@@H]1CN(C)C(=O)c2cc(NC(=O)Nc3cccc(Cl)c3)ccc2OC[C@H](C)NC[C@H]1C` reads nt | i | 0&-8 | 10&8.5 | nt | nt | nt | -2&-6 | 3.4

(further entries)
HNF4A DNA FP	FGF22 binding	Ecoli rRNA inh OD600	Ecoli rRNA inh RFP	Vif TR-FRET	Ecoli growth	ALR inh	Ecoli rRNA inh	AF4-AF9 inh	molecule
-1.9	i	-15	0.6	-2%	0.65	1	-5	4.7	COc1ccc(CN2CCN(Cc3ccccc3C(F)(F)F)CC2)c(OC)c1
0.2	nt	nt	nt	-2%&-17%	0.68	0	nt	nt	Clc1ccc(OCCN2CCN(c3ncnc4sccc34)CC2)cc1
0.1	i	5	-6.0	3%	0.68	-9	-1	1.5	CC(=O)Nc1ccc(NC(=O)C(C)OC(=O)c2ccc(-n3cnnn3)cc2)cc1 (stereo not drawn)
3.4	i	5	-0.6	-7%	0.65	3	11	3.6	CC(=O)c1ccc(Nc2nc3ccc(C)cc3n3cnnc23)cc1

From PubChem
